StopGo FLuc: Primary qHTS Assay for Foot and Mouth Disease Virus Antivirals against NCGC Sytravon and CBC Compound Libraries: Firefly Luciferase Signal; HEK cells with a luciferase reporter of 2A StopGo recoding; Potency, µM (top dose mostly 57.5 µM), without a hit: at the highest dose signal change, negative = less light; actives 0.23% (n = 120,000); active = well fitted falling curve with a large enough effect; inconclusive = small, poorly fitted or top-dose-only effect; inactive = no such curve, though single readings can be large or run the other way; also: nearly all actives have a fitted effect of over 60% in size; overnight with compound
StopGo RLuc: Primary qHTS Assay for Foot and Mouth Disease Virus Antivirals against NCGC Sytravon and CBC Compound Libraries: Renilla Luciferase Signal | HEK cells with a luciferase reporter of 2A StopGo recoding | Potency, µM (highest dose often 57.5 µM), inactives show at the top dose signal change, negative = less light | actives 0.32% (n = 120,000); active means well fitted falling curve with a large enough effect; inconclusive means small, poorly fitted or top-dose-only effect; inactive means no such curve, though single readings can be large or run the other way; also: nearly all actives have a fitted effect of over 55% in size; overnight with compound
An asterisk follows results filed as active; u = inconclusive; & = joins results of further samples; [ ] = dose if it differs, or a comment. % is scaled to controls: 0 for no effect and ±100 for the full control effect; potency is read from the fitted curve at half-maximal effect. An unsorted share of the library; overall some 0.53% were active at least once.

The opening 3 entries as a preview:
SMILES | StopGo FLuc | StopGo RLuc
Cc1ccc(NC(=O)c2cnc3ccccc3n2)cc1F | 116.4%[activator] | -9.6%
Cc1[nH]c2ccccc2c1C(=O)C(C)OC(=O)c1ccc(F)cc1Cl (stereo not given) | 18.3% | 0.1%[1.06 µM]
COc1ccc2[nH]c(=O)c(CN(C)S(C)(=O)=O)cc2c1 | 10.7% | -1.1%

This part in full, from the start:
SMILES | StopGo FLuc | StopGo RLuc
Cc1ccc(NC(=O)c2cnc3ccccc3n2)cc1F | 116.4%[activator] | -9.6%
Cc1[nH]c2ccccc2c1C(=O)C(C)OC(=O)c1ccc(F)cc1Cl (stereo not given) | 18.3% | 0.1%[1.06 µM]
COc1ccc2[nH]c(=O)c(CN(C)S(C)(=O)=O)cc2c1 | 10.7% | -1.1%
O=C(C1CC1)N1c2nc(-c3ccco3)nn2C2(CCCCC2)[C@@H]2CCCC[C@@H]21 | 16.7% | 6.0%
CC(Sc1nnc(-c2ccccc2F)n1C1CC1)c1ccccc1 (stereo not given) | -18.9% | 11.1%
O=C(CN(CC(=O)NCCO)C(=O)C(=O)N(CC(=O)NCCO)CC(=O)NCCO)NCCO | 28.2% | 20.9%
O=[N+]([O-])c1ccc(N/N=C/c2ccc(Br)cc2)cc1 | -5.7% | -19.0%
CCCCOC(=O)c1ccc(NC(=O)c2cnc3ccc(C)cn3c2=O)cc1 | -8.6% | -8.5%
C=CCOc1ccc(CN(C)C(=O)c2n[nH]c(=O)c3ccccc23)cc1 | -1.0% | -20.9%
O=C(NNc1ncnc2c1cnn2-c1ccccc1)c1ccccc1 | 41.4%[activator] | 5.1%
COc1ccccc1/C=C1\Oc2cc(OC(=O)C(C)(C)C)ccc2C1=O | 11.0% | 8.2%
Cc1ccc(Nc2c(-c3cccnc3)nc3ccc(C)cn23)cc1 | -15.4% | -8.3%
CCCCOc1ccc(Cn2c(=O)oc3ccc(C)cc32)cc1 | -3.6% | -13.4%
O=C(Cn1cc2c(n1)CCCC2)Nc1cc(C(F)(F)F)ccc1Cl | 5.0% | -7.1%
O=C(Nc1ccc(Cl)c(Cl)c1)c1cc(S(=O)(=O)N2CCN(c3cccc(Cl)c3)CC2)ccc1F | -11.5% | 13.4%
Cc1ccc(-c2noc(-c3nnn(-c4ccc(Br)cc4F)c3C)n2)cc1 | 24.2% | 0.9%
CCOc1ccccc1NC(=O)c1nn(C)c2c1CSc1ccccc1-2 | -10.7% | 1.3%
CCCCc1ccc2[nH]c(C(=O)OCC)cc2c1 | 182.8%[activator] | 5.9%[1.06 µM]
CC(=O)Nc1ccc(NC(=S)NC(NC(=O)c2ccc(C)cc2)C(Cl)(Cl)Cl)cc1 (stereo not given) | 0.9% | 0.0%
Cc1nc(-n2nc(C)c(Cl)c2C)sc1C(=O)N1CCOCC1 | 22.2% | -0.2%
O=C(NCC(c1cccnc1)N1CCc2ccccc21)c1cccc(C(F)(F)F)c1 (stereo not given) | -14.2% | -3.5%
Cc1nc(COc2ccccc2C(=O)N2CCC(C)CC2)no1 | 76.0%[activator] | 22.9%
O=C(CCC1CCCC1)Nc1nc2ccccc2s1 | 267.7%[activator] | 21.4%
COc1ccc(N2CCN(C(=O)CCc3c(C)nc4cc(-c5cccc(F)c5)nn4c3C)CC2)cc1 | 25.1µM* | -4.5%
COc1ccc(S(=O)(=O)Nc2cccc(-c3ccc(N4CCCC4)nn3)c2)cc1OC | -21.3% | 125.9%[activator]
(cont.)
SMILES | StopGo FLuc | StopGo RLuc
CCCCOc1ccc(NC(=O)c2cccc(OCCC)c2)c2cccnc12 | 7.5% | -2.5%
CC(=O)Nc1ccc2[nH]cc(C(C(=O)O)N3CCN(c4ncccc4C#N)CC3)c2c1 (stereo not given) | 43.0%[activator] | 23.9%
CCc1nnc(NC(=O)c2nc(SC)ncc2Cl)s1 | -1.9%&-7.4% | 4.7%&2.7%
COc1ccc(Cl)cc1NC(=O)CN(C)C(=O)c1ccc(-c2ccccc2Cl)o1 | 0.0% | 18.6%
COc1ccc2cc(C(=O)NCc3ccncc3)c(C)nc2c1 | 113.0%[activator] | -0.2%
Cc1cc(C)cc(NC(=O)CSc2nc3ncccc3[nH]2)c1 | 26.4% | 17.4%
CCc1nc(Cn2cnc3c2c(=O)n(C)c(=O)n3C)cs1 | u | u
Cc1sc(NC(=O)c2cccs2)c(C#N)c1C | 12.7% | -2.3%[1.06 µM]
COC(=O)c1ccn(Cc2ccc(Cl)cc2Cl)n1 | 181.5%[activator] | 2.3%
CCCSC1=NC2(CCN(C(=O)NC3CCCCC3)CC2)N=C1c1ccccc1 | -9.6% | -6.3%
Cn1c(=O)c2c(ncn2CCC(=O)Nc2ccccc2Oc2ccccc2)n(C)c1=O | 0.0% | 16.6%
Cc1cccc(N(CC(=O)Nc2ccc(Br)cc2)S(C)(=O)=O)c1C | 13.8% | 0.0%
Cc1cc(C)cc(C(=O)Nc2cc(C(F)(F)F)ccc2N2CCN(c3ccccc3)CC2)c1 | -9.9% | -12.3%
COc1cccc(CNC(=O)CCc2c(C)c3ccc(O)c(C)c3oc2=O)c1 | 4.1% | 16.3%
O=C(Cc1cccs1)Nc1cccc(-c2nc3cc(Cl)ccc3o2)c1 | 11.0% | 2.1%
CC(C)C(NC(=O)C1O[C@@H]2OC(C)(C)O[C@@H]2[C@H]2OC(C)(C)O[C@@H]12)C(=O)O (stereo not given in full) | u | 16.8%[1.06 µM]
CCc1cc(C(Nc2nc(C)cc(C)n2)c2ccccc2)c(NC(=O)c2ccco2)s1 (stereo not given) | -0.4% | 34.8%[activator]
CCCCN(Cc1cc2ccccc2[nH]c1=O)S(=O)(=O)c1ccc(Cl)cc1 | u | u
CSc1ccc(-c2nc3ncccn3c2Nc2ccccc2)cc1 | 5.1% | -1.8%
O=C(Nc1ccc(Cl)c(Cl)c1)C(=O)c1c[nH]c2ccccc12 | 0.0% | -2.0%
O=C(COC(=O)c1ccc2ccccc2n1)NCc1ccccc1 | 7.6% | -3.3%
CCC(NC(=O)c1ccc(C)s1)c1ccccc1 (stereo not given) | 15.5% | 0.7%
COc1cccc(CNS(=O)(=O)c2c(C(=O)N3CCC(C)CC3)c(C)n(C)c2C)c1 | -13.9% | 123.0%[activator]
CCOc1ccc(S(=O)(=O)NCCc2sc3nc(-c4ccc(C)cc4)nn3c2C)cc1 | -27.5% | 16.7%
Cc1ccc2c(c1)N(C(=O)N1CCC(C(=O)NCc3ccco3)CC1)CC(C)O2 (stereo not given) | -6.9% | -10.9%

Compounds from the list above containing a CF3 group:
SMILES | StopGo FLuc | StopGo RLuc
O=C(Cn1cc2c(n1)CCCC2)Nc1cc(C(F)(F)F)ccc1Cl | 5.0% | -7.1%
O=C(NCC(c1cccnc1)N1CCc2ccccc21)c1cccc(C(F)(F)F)c1 (stereo not given) | -14.2% | -3.5%
Cc1cc(C)cc(C(=O)Nc2cc(C(F)(F)F)ccc2N2CCN(c3ccccc3)CC2)c1 | -9.9% | -12.3%

(further entries)
SMILES | StopGo FLuc | StopGo RLuc
COc1ccc(NC(=O)Cn2cc(C(=O)c3ccccc3)c(=O)c3cc(OC)ccc32)c(OC)c1 | u | -17.6%
CN1CCN(c2ccc([N+](=O)[O-])c3cccnc23)CC1 | 13.5% | -10.5%
O=C(CSc1oc(-c2ccc(F)cc2)nc1S(=O)(=O)c1ccccc1)NC1CCCCC1 | -21.9% | -11.4%
COc1ccc(NC(=O)c2cc(-c3ccccn3)n[nH]2)cc1Cl | 20.2% | 0.0%
COc1ccc(/C=C(\C#N)c2nc(-c3cc4c(ccc5ccccc54)oc3=O)cs2)cc1O | -10.9% | -4.1%
Cc1cccc(C)c1OCCN | -9.6% | -6.9%
CCCCNC(=O)CN1CCN(c2ccc(NC(=O)c3ccc(OC)cc3)cc2C(=O)O)CC1 | 4.8% | -9.5%
NC(=O)c1c(NC(=O)CN2CCN(C(=O)C3CC3)CC2)sc2c1CCC2 | -0.2% | -9.3%
CCOc1ccc(NC(=O)C#Cc2ccccc2)cc1 | 149.3%[activator] | -4.9%
O=C(Nc1onc2c1CCCC2)c1ccccc1Cl | -48.6% | 40.3%
CCC(=O)O[C@@H]1C=C2CCC3C(CCC4(C)C3CC[C@@H]4OC(=O)CC)C2CC1 (stereo not given in full) | 11.4%[11.5 µM] | -7.3%
c1ccc(OCCN2CCN(Cc3nc(C4CC4)no3)CC2)cc1 | 6.4% | 2.4%
CC(=O)c1ccc(OCc2ccccc2)cc1O | 254.9%[activator] | 14.8%
O=C(Cn1nc(-c2ccccc2)c2ccccc2c1=O)N1CCC(Cc2ccccc2)CC1 | -16.3% | -11.4%
COc1ccc(/C=C/C(=O)c2cc3ccccc3o2)cc1OC | 50.6%[activator] | -2.5%[1.06 µM]
CCCCCCCOc1ccc(-c2ccc(C(=O)O)cc2)cc1 | 0.0% | 25.1%
O=C(O)c1cc(-c2ccc(F)cc2)on1 | 9.4% | -12.8%
Cc1ccc(Cl)cc1N1CCN(c2ncnc3c2nc2n3CCCC2)CC1 | -7.3% | -0.5%
CCOC(=O)CN(Cc1ccccc1)C(C(=O)NC1CCCCC1)c1ccc(OC)cc1 (stereo not given) | 16.1% | 15.9%
COc1cccc(NC(=O)NCc2ccc3c(c2)CCN3C(=O)c2ccccc2)c1 | u | u
CCOc1ccc(Sc2cc(C(=O)NCCc3ccccc3)c3ccccc3n2)cc1 | -22.2% | -13.8%
O=C(NCCc1ccccc1)OCc1cn(Cc2cccc(Cl)c2)nn1 | 98.6%[activator] | 48.8%
COCCn1c(SCC(=O)c2ccc(Cl)cc2)nnc1-c1ccc(Cl)cc1 | 38.9%[activator] | 0.0%
COc1ccc(C2C(C(=O)Nc3ccc(C)cc3C)=C(C)Nc3nc(SC)nn32)cc1OC (stereo not given) | -17.5% | -12.7%
Cc1ccc(S(=O)(=O)N(C)C(C)c2cc3ccccc3o2)cc1C (stereo not given) | u | u

Given as labelled records: part of the list above
Molecule: O=C(Nc1onc2c1CCCC2)c1ccccc1Cl
  StopGo FLuc: -48.6% | StopGo RLuc: 40.3%

Molecule: CCC(=O)O[C@@H]1C=C2CCC3C(CCC4(C)C3CC[C@@H]4OC(=O)CC)C2CC1 (stereo not given in full)
  StopGo FLuc: 11.4%[11.5 µM] | StopGo RLuc: -7.3%

Molecule: c1ccc(OCCN2CCN(Cc3nc(C4CC4)no3)CC2)cc1
  StopGo FLuc: 6.4% | StopGo RLuc: 2.4%

Molecule: CC(=O)c1ccc(OCc2ccccc2)cc1O
  StopGo FLuc: 254.9%[activator] | StopGo RLuc: 14.8%

Following part:
SMILES | StopGo FLuc | StopGo RLuc
CCCNC(=O)NCc1nc(-c2ccc(OCC)cc2)oc1C | 73.6%[activator] | 19.9%
CC(C)C(NC(=O)c1ccccc1F)C(=O)NN (stereo not given) | -1.7% | 3.8%
Cc1ccc2scc(N3CCN(C)CC3)c(=O)c2c1 | 107.3%[activator] | 0.0%
Cc1cc(C)cc(NC(=O)CN(C)S(=O)(=O)c2ccc3[nH]c4c(c3c2)CCCC4)c1 | -9.6% | -6.8%
O=S(=O)(c1ccc2c(c1)OCCO2)c1nc(-c2ccco2)oc1N1CCOCC1 | 6.2% | 0.0%
CCc1ccccc1NC(=O)c1ccc2nc(CCc3ccccc3)oc2c1 | 91.2%[activator] | -9.1%
O=C(Cn1c(=O)n(Cc2ccc(F)cc2)c(=O)c2ccccc21)Nc1ccc(F)cc1 | -3.1% | 2.1%
COc1ccc(NC(=O)Cn2c(=O)cc(C)c3c(C)nn(C)c32)cc1 | -14.2% | -10.9%
CC(=O)CC(C)(C)S(=O)(=O)c1cccc2c(S(=O)(=O)C(C)(C)CC(C)=O)cccc12 | -2.4% | -2.0%
O=C(Cc1cccc(C(F)(F)F)c1)NCCc1ccccn1 | 16.7% | 18.1%
CCCCCn1nc(C(=O)Nc2nc(C)c(C(C)=O)s2)c2ccccc2c1=O | 9.9% | 1.6%
CCOc1ccccc1NC(=O)c1cc2ccc3cccnc3c2[nH]1 | 39.2%[activator] | -8.8%
O=C(N/N=C/Cc1ccccc1)C1CC1 | 0.0% | 15.8%
Cc1ccc(CNC(=O)CSCc2nc(-c3ccc(Cl)cc3)oc2C)cc1 | -10.7% | -14.2%
CCc1cccc(C)c1-n1nnnc1C1(Nc2ccc3c(c2)OCCO3)CCCC1 | -0.1% | 26.0%
CCOc1ccccc1C(=O)N(Cc1cc(OC)c(OC)c(OC)c1)c1ccccn1 | 21.5% | 52.2%[activator]
Cc1cc2c(c(=O)n1CCN1CCOCC1)C(c1ccccc1F)C(C#N)=C(N)O2 (stereo not given) | 5.4% | 6.9%

Five compounds out of the list, arranged by SMILES length, rising:
SMILES | StopGo FLuc | StopGo RLuc
Cc1nc(COc2ccccc2C(=O)N2CCC(C)CC2)no1 | 76.0%[activator] | 22.9%
Cc1cc(C)cc(NC(=O)CSc2nc3ncccc3[nH]2)c1 | 26.4% | 17.4%
COc1ccc(NC(=O)c2cc(-c3ccccn3)n[nH]2)cc1Cl | 20.2% | 0.0%
Cc1ccc(S(=O)(=O)N(C)C(C)c2cc3ccccc3o2)cc1C (stereo not given) | u | u
COCCn1c(SCC(=O)c2ccc(Cl)cc2)nnc1-c1ccc(Cl)cc1 | 38.9%[activator] | 0.0%

From PubChem
